# CapD inh: Bacillus anthracis CapD inhibitors, primary screen, biochemical, fluorescence intensity | purified CapD enzyme, fluorescence intensity read-out; stronger effect = lower value; some hits fall short of the stated cut | z-score (test concentration not listed) | CapD gamma-glutamyltranspeptidase (Bacillus anthracis Ames Ancestor) | hit rate 0.23% among 140,000;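 active means z-score under -4 in either of two replicates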;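 further: stock transfer was 100 nL into about 40 µL; score is relative to mean and spread of the plate; one replicate is shown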
# AID504770: growth inhibition of E. coli YBA685, primary screen, V. cholerae RctB inhibitors | E. coli YBA685 rctB-dependent plasmid, OD600 growth, 3 h; stronger effect = lower value | z-score (test concentration not listed) | hit rate 0.27% among 130,000 | AID 504770, 2011;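 active means z-score under -2 on both plates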;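 further: wells of about 30 µL received 100 nL stock; score is relative to mean and SD of the test wells; the first replicate is given; strong numbers were not always called active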
# * hit, by the source's call; . = no result given; & = joins results of further samples.
No.	SMILES	CapD inh	AID504770
1	C=CCNC(=O)c1ccc2snnc2c1	-0.41	-0.55
2	Cc1ccc(S(=O)(=O)NC(=O)NCCCN2CCc3ccccc32)cc1	-0.09	.
3	N#C/C(C(=O)c1ccccc1)=c1/s/c(=C\c2cccs2)c(=O)n1Cc1ccco1	.	0.4
4	Cc1nc(SCC(=O)NC(C)(C#N)C2CC2)c2c(C)c(C)sc2n1 (stereo unspecified)	.	-0.55
5	CCN1CCN(S(=O)(=O)c2ccccc2)CC1	0.48	-0.4
6	Cc1ccc(S(=O)(=O)NNS(C)(=O)=O)cc1	.	1.1
7	CC(C)(C)c1ccc(-c2noc(CSc3n[nH]c(=O)n3Cc3ccco3)n2)cc1	0.36	-0.5
8	CCOC(=O)Cc1csc(NC(=O)CSc2nc(=O)cc(N)n2-c2cccc(C)c2)n1	0.14	-0.25
9	CCSc1nnc(NC(=O)C2=NN(c3cc(C)ccc3C)C(=O)CC2)s1	.	0.15
10	OC(CN1CCc2ccccc21)C(F)(F)F (stereo unspecified)	1.1	-1.8
11	Cc1ccccc1C(=O)N1NC(=Nc2ccccc2)SC1(C)C	-0.42	.
12	Cc1cc(C)c(C2=NON3N(C(=O)c4cccc(Cl)c4)c4ccccc4N23)c(C)c1	0.16	.

No.	SMILES	CapD inh	AID504770
13	COc1ccc2c(c1)C(C)(C)C1(C=Nc3c(ccc4ncccc34)O1)N2C (stereo unspecified)	-0.17	.
14	CC1(C)OC(=O)C(=Cc2ccc3c(c2)OCO3)C(=O)O1	0.64	-0.3
15	Cc1cccc(NC(=O)CN(C)C(=O)C2CCCC2)c1C	.	-2.4
16	N/C(=N\S(=O)(=O)c1ccc(Cl)cc1)N1CCSCC1	0.17	-0.4
17	c1ccc(-c2noc(-c3cccs3)n2)cc1	-0.005	-0.4
18	CCOC(=O)N(c1ccccc1)S(=O)(=O)c1ccccc1C	-0.92	-1.1
19	O=C(COc1nsnc1N1CCOCC1)N/N=C/c1cccc(Br)c1	0.43	-0.5
20	O=c1c([N+](=O)[O-])cc(C(F)(F)F)cn1Cc1ccc(Cl)c(Cl)c1	-1.1	.
21	CC(=O)OCC1OC(Oc2ccc(C(=O)Cc3ccc(OC(C)C)cc3)c(O)c2)C(OC(C)=O)C(OC(C)=O)C1OC(C)=O (stereo unspecified)	-0.75	.
22	O=C(CSc1nc2ccccc2s1)Nc1ccc2c(c1)OCO2	0.65	0.1
23	S=C(NN=C1CCCCCC1)Nc1cccc(Cl)c1	0.49	.
24	CCN1CCCC1CNC(=O)CCCn1c(C)c2cnn(-c3ccccc3)c(=O)c2c1C (stereo unspecified)	0.04	0.25

# The closing 4 entries of the part before open the next one:
No.	SMILES	CapD inh	AID504770
21	CC(=O)OCC1OC(Oc2ccc(C(=O)Cc3ccc(OC(C)C)cc3)c(O)c2)C(OC(C)=O)C(OC(C)=O)C1OC(C)=O (stereo unspecified)	-0.75	.
22	O=C(CSc1nc2ccccc2s1)Nc1ccc2c(c1)OCO2	0.65	0.1
23	S=C(NN=C1CCCCCC1)Nc1cccc(Cl)c1	0.49	.
24	CCN1CCCC1CNC(=O)CCCn1c(C)c2cnn(-c3ccccc3)c(=O)c2c1C (stereo unspecified)	0.04	0.25
25	CCOc1ncccc1C(=O)OCc1cc(=O)oc2c(C)c(C)ccc12	.	-0.5
26	CSc1n[nH]c(N)c1-c1ccccn1	0.22	1.7
27	COc1cccc2c1NC(c1ccc(F)cc1)C1CC=CC21 (stereo unspecified)	0.12	.
28	O=C(c1ccc(Cl)cc1)c1oc2ccccc2c1CSc1ccccc1	-0.76	.
29	CSc1ccccc1NC(=O)CN(C)C(C)C(=O)Nc1cccc(C#N)c1 (stereo unspecified)	.	0.7
30	COc1ccc(N(C=O)C(C(=O)Nc2c(C)cccc2C)c2ccc(Cl)cc2)cc1 (stereo unspecified)	0.17	-1
31	O=C(OCc1cc(=O)n2cc(Br)ccc2n1)c1ccco1	.	0.25
32	C=CCOc1nc(NC(C)C)nc(NC(C)C)n1	-0.99	-0.7
33	CC1(C)CC2CC(C)(CN2S(=O)(=O)c2ccccc2C(F)(F)F)C1 (stereo unspecified)	.	0.1
34	Cc1ccc(N(CCCCN2C(=O)c3ccccc3C2=O)C(=O)c2sc3ccccc3c2Cl)cc1	0.005	.
35	CC(C)CCOc1cccc(OCC(=O)Nc2ccncc2)c1	-0.34	-1.1
36	NC(=O)c1cccc2c3c([nH]c12)CCCC3	0.97	-0.3

No.	SMILES	CapD inh	AID504770
37	O/N=C/c1ccc2c(c1)CCO2	0.09	1.2
38	Cc1ccccc1C(=O)N=C1NC(=O)C(C)S1 (stereo unspecified)	-0.27	-0.35
39	COC(=O)c1ccc(Oc2ccc(C(=O)OC)cc2)cc1	0.53	0.35
40	CC(c1ccc(F)cc1)n1cc(C(=O)NCCN(C)C)nn1 (stereo unspecified)	0.13	-0.55
41	COc1ccc(C(=O)Nn2c(-c3cc(OC)c(OC)c(OC)c3)nc3ccccc3c2=O)c(OC)c1	-0.52	.
42	COC(=O)c1ccccc1S(=O)(=O)N1CCC(C(=O)NCCN2C(=O)S/C(=C\c3cccnc3)C2=O)CC1	.	-1.4
43	COC(=O)c1c(-c2ccc(Br)cc2)noc1N	47	-0.1
44	O=S(=O)(Nc1ccc(C(F)(F)F)cn1)c1ccc(-c2ccccn2)s1	0.6	-0.6
45	CC1(C)CC(=O)C=C(Nc2ccccc2)C1	-0.16	-0.25
46	CC(=O)NC1=NC(=O)/C(=C/c2ccc(-c3ccc(C)c(Cl)c3)o2)S1	0.2	.
47	Cc1nn(-c2ccccc2)c2sc(C(=O)OCCCc3nc(-c4ccccc4)no3)cc12	.	0.6
48	COC(=O)CCC1CC2(CCC1=O)OCCO2 (stereo unspecified)	-0.11	.

# Not a retest: entries from further up.
No.	SMILES	CapD inh	AID504770
38	Cc1ccccc1C(=O)N=C1NC(=O)C(C)S1 (stereo unspecified)	-0.27	-0.35
39	COC(=O)c1ccc(Oc2ccc(C(=O)OC)cc2)cc1	0.53	0.35

# Next records.
No.	SMILES	CapD inh	AID504770
49	Brc1cc2c(cc1Cn1nnc(-c3cccs3)n1)OCO2	.	-0.2
50	Cc1ccc(Cl)cc1NC1=NC(=S)N(c2ccc(O)cc2)C12CCCCC2	-0.24	.
51	O=C(CN1C(=O)C2C3C=CC(C3)C2C1=O)NC1CCCc2ccccc21 (stereo unspecified)	-0.62	.
52	CCCN(CCC)c1nn2c(=O)c(C(=O)NCC)cnc2s1	102	-0.4
53	CNC(=S)NC1CC2CCCC(C1)N2Cc1ccco1 (stereo unspecified)	.	-0.5
54	NCCSc1ccccc1	.	1.2
55	CC(C)n1c(=O)c(=O)n(Cc2cccc(C(F)(F)F)c2)c2cc(C(F)(F)F)ccc21	2	.
56	CCN(CC)c1nc(C)nc(Cl)c1Cc1ccccc1	.	0
57	C(=N\c1nccs1)/c1cccc2c1OCOC2	0.27	2.2
58	Cc1ccc2[nH]c(=O)c(CN(C(=O)NC3CCCCC3)C3CCCCC3)cc2c1	.	0.05
59	CC(C)=CC1C(C(=O)N/N=C(\C)c2cc(F)ccc2O)C1(C)C (stereo unspecified)	.	-0.15
60	CC1(C)S[C@@H]2[C@H](NC(=O)C(C(=O)O)c3ccccc3)C(=O)N2[C@H]1C(=O)O (stereo partly specified)	-0.43	0.15

# Entries by screen from the entries so far.
# AID504770, nos. 49–60 → -0.2, ., ., -0.4, -0.5, 1.2, ., 0, 2.2, 0.05, -0.15, 0.15

# Continuation:
No.	SMILES	CapD inh	AID504770
61	O=C(NCc1ccc2c(c1)OCO2)c1nnc(Cc2ccc(Cl)cc2)o1	0.18	0.6
62	C1=CC2C(C1)CC2NCCc1nnc2ccccn12 (stereo unspecified)	.	0.95
63	CC(C)(C)OC(=O)NC(CCCCNC(=O)c1cccnc1)C(=O)NCc1cccs1 (stereo unspecified)	-1.1	.
64	Cc1occc(=O)c1OC(=O)c1ccccc1F	.	-0.15
65	O=C(CSc1nnc(-c2ccoc2)c(-c2ccoc2)n1)c1ccc(-c2ccccc2)cc1	.	0.15
66	CCCN1CCC(NC2CCN(Cc3ccccc3)CC2)CC1	-0.14	-0.95
67	Cc1cccc(NC(=O)COC(=O)/C=C/c2ccc(F)cc2)c1C	-0.09	-0.25
68	O=C1c2[nH]nc(-c3ccc(Br)cc3)c2C(c2cccs2)N1c1ccc(Cl)cc1 (stereo unspecified)	0.1	0.15
69	CCC(CC)C(=O)c1c[nH]c(C(=O)O)c1	0.14	-0.25
70	O=c1nc2n(-c3ccc(I)cc3)c3ccccc3cc-2c(=O)[nH]1	0.065	.
71	CCCC(=O)N(C)c1nnc(-c2ccc(F)cc2)s1	.	0.2
72	O=C(Nc1ccc(-c2nc3ccccc3s2)cc1)c1cccc(F)c1	14	1.6

No.	SMILES	CapD inh	AID504770
73	CCc1nnc(NC(=O)C2CCCO2)s1 (stereo unspecified)	.	0
74	COc1ccccc1CNS(=O)(=O)c1cccc2cccnc12	-0.47	-0.65
75	C=CCNS(=O)(=O)c1ccc(SC)cc1	-0.7	1.8
76	COc1ccc(C2=NN(C(=O)CSc3n[nH]c(-c4ccc(Br)cc4)n3)C(c3ccco3)C2)cc1 (stereo unspecified)	.	-0.05
77	CCN(CC)CCSc1nnc2c(n1)[nH]c1ccc(C)cc12	-0.73	.
78	Cc1ccc(Oc2ccc(C(F)(F)F)cc2[N+](=O)[O-])c2c1CCC2	0.74	.
79	Cc1cc(C)c(Cn2c(=O)n(NC(=O)c3ccccc3)c(=O)c3sccc32)c(C)c1	1.5	0.4
80	O=C(Nc1c[nH]c2cc(Cl)ccc2c1=O)N1CCCCC1	.	1.6
81	COC(=O)CN1C(=O)C2(C(C#N)=C(N)OC3=C2C(=O)CC(c2ccco2)C3)c2ccccc21 (stereo unspecified)	-0.27	.
82	N#CC[S+](O)c1ccccc1 (stereo unspecified)	-0.83	-0.45
83	CCOC(=O)c1ccc2c(c1)nnn2C	0.61	-1.2
84	c1ccc(OCCSc2nc3ccccc3n2CCOc2ccccc2)cc1	-0.05	-0.05

No.	SMILES	CapD inh	AID504770
85	O=c1c(Cc2ccccc2OCc2ccccc2)coc2ccccc12	0.53	0.1
86	C=CCSc1nc2ccccc2n1C(=O)c1ccc2c(c1)OCO2	.	-0.05
87	N#CC1=C(N)N(c2ccc(Br)cc2)C2=C(C(=O)CCC2)C1c1ccc2c(c1)OCO2 (stereo unspecified)	0.44	.
88	CCN1CCN(C(=O)CCc2nc3ccccc3n2-c2ccccc2)CC1	.	-0.1
89	O=C(O)CC(O)(c1ccccc1)C(F)(F)F (stereo unspecified)	0.18	0.25
90	Oc1ccc(Cc2ccc(O)c3ncccc23)c2cccnc12	-0.39	-0.3
91	O=C(NC1CCN(Cc2ccccc2)CC1)c1ccccc1	0.49&0.28	-1.6
92	CCN1CCN(C(c2cccs2)C(C)NC(=O)Cc2ccc(OC)c(OC)c2)CC1 (stereo unspecified)	-0.18	0.25
93	O=C(O)CCN1C(=O)SC(Nc2cccc3ccccc23)C1=O (stereo unspecified)	13	-0.25
94	Cc1cc(C)n2c(Nc3c(C)cccc3C)c(-c3ccc(Cl)s3)nc2n1	1.5	-0.35
95	O=C(CCSCCc1ccncc1)N1CCOCC1	0.49	-1.2
96	CC(=O)OC1(c2ccccc2)CCN(C)C2CCCCC21 (stereo unspecified)	.	-0.55

# Taken from above:
# compound 92 @ CapD inh: -0.18
# compound 93 @ CapD inh: 13
# compound 87 @ CapD inh: 0.44
# compound 90 @ AID504770: -0.3
# compound 95 @ CapD inh: 0.49

# Continued.
No.	SMILES	CapD inh	AID504770
97	CCOc1ccccc1NC(=O)COc1ccccc1F	-0.17	-0.15
98	Cc1cc(N2CCOCC2)nc(SCc2cc3c(cc2Cl)OCO3)n1	.	-0.95
99	CC(=O)Oc1ccc(-c2ccccc2)cc1	-1.6	0.15
100	O=C(CN1CCN(Cc2ccc(F)cc2Cl)CC1)NCc1ccccc1	-0.16	0.05
101	O=C(OCC(=O)c1cccc2ccccc12)c1cccs1	-0.53	-0.35
102	COc1ccccc1CN(C(=O)c1cc(Cl)nc(Cl)c1)c1ccc2[nH]c(C(C)(C)C)cc2c1	-0.4	.
103	c1cc(-c2nc3cc4sc(-c5ccn[nH]5)nc4cc3s2)[nH]n1	11	1.1
104	CC(C)(CNC(=O)C1c2ccccc2-c2ccccc21)N1CCOCC1	.	-0.35
105	CC(C)Oc1ccc(C2CC(=O)Nc3sc(C(=O)c4ccco4)c(N)c32)cc1 (stereo unspecified)	.	-0.3
106	C=CCn1c(=NC(=O)/C=C/c2ccccc2)sc2cc(S(C)(=O)=O)ccc21	1.4	-1.4
107	NS(=O)(=O)c1ccc(NC(=O)CN2CC(=O)NC(=O)C2)cc1	0.44	1.2
108	Cc1nc(C(F)(F)F)ccc1C(=O)Sc1ccccc1	-0.93	-0.55

No.	SMILES	CapD inh	AID504770
109	C/C=C/c1ccc(OCC(=O)OC(C)C(N)=O)c(OC)c1 (stereo unspecified)	.	-0.35
110	COc1ccc(N2C(=O)/C(=C\c3cc(Cl)cc(Br)c3O)C(=O)NC2=S)cc1	-0.92	.
111	Cc1cccc(C)c1NC(=O)C1(N(C)C(=O)Cc2cccs2)CCCCC1	0.28	0.2
112	COc1ccc(C(=O)CCC(=O)O)c(OC)c1	.	-0.25
113	Nc1c2c(nn1-c1ccccc1)CCC2	.	-0.1
114	OC(CNCc1ccc(Cl)c(Cl)c1)Cn1ccc2ccccc21 (stereo unspecified)	0.26	-0.65
115	CC(C)(C)c1nocc1C(=O)N1CCOCC1	0.11	0.45
116	CCCC1CC2(O)CC(C#N)(C(=O)N2)C1(C#N)C#N (stereo unspecified)	-0.47	1.8
117	Cc1cc(C(=O)COC(=O)c2cnccn2)c(C)n1-c1ccc(OC(F)F)cc1	.	-0.2
118	COc1ccc(Cl)cc1-c1nc(SCC(=O)NCC(F)(F)F)n[nH]1	.	0.3
119	O=C(CSc1nc2ccccc2s1)OCC(=O)c1ccc(F)cc1	-0.7	1.6
120	Nc1c(C(=O)c2ccccc2)sc2[nH]c(=O)c(C(=O)O)cc12	-0.81	-0.5
121	COc1ccccc1NC(=O)Cn1cnc2sc(C(=O)Nc3cc(OC)c(OC)c(OC)c3)c(C)c2c1=O	-1.1	.
